Compound activity from PubChem.
Vaccinia inh – Vaccinia orthopox stage-specific inhibition; Vaccinia-infected cells, mCherry/Venus stage reporter fluorescence; stronger effect = lower value; some inactives read as strong as hits; activity change (mCherry), % (test concentration not listed); 89,000 tested, 0.01% active;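 active means mCherry past -33% and 40 or more points under the early reporter, replicates agreeing; inconclusive means past -33% without that gap or agreement; tested in A549 cells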;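 further: scaled between vehicle wells and reference inhibitor wells; 23 nL library stock went into each well; one replicate is shown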
Vaccinia inh Venus – second read-out of Vaccinia inh, no call of its own (marks repeat the call); activity change (Venus), %; measured here: Venus reporter, other viral stage;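 negative = less Venus signal; first of two replicates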
An asterisk follows results filed as active; ? = inconclusive; / = no result given; & = joins results of further samples.

SMILES	Vaccinia inh	Vaccinia inh Venus
Cc1noc(C)c1S(=O)(=O)N(C)C[C@H]1Oc2ccc(NS(=O)(=O)c3ccc(F)cc3)cc2CC(=O)N([C@@H](C)CO)C[C@H]1C	7.4	9.1
N#C[C@@H]1[C@H](c2ccc(C#Cc3ccccc3F)cc2)[C@H](CO)N1C(=O)C1CCCCC1	?	/
O=C(C[C@H]1CC[C@@H](NC(=O)C2CCC2)[C@@H](CO)O1)Nc1nccs1	5.5	5.4
Cc1cccc(S(=O)(=O)N2CCCCN3[C@@H](CO)[C@H](c4ccc(C#C[C@H](C)O)cc4)[C@@H]3C2)c1	-5.4	-14.2
CC=Cc1ccc2n(c1=O)C[C@H]1[C@H](CO)[C@@H](C(=O)NCC)N(Cc3nccs3)[C@@H]21 (mixture of isomers)	-6.1	-2.3
COc1ccccc1NC(=O)N1CC(=O)N2[C@H](C1)[C@H](c1ccc(-c3ccc(C)cc3)cc1)[C@@H]2CO	-24.3	-13.3
C[C@H]1CN([C@@H](C)CO)C(=O)c2cccc(NS(=O)(=O)c3ccc(F)cc3)c2O[C@H]1CN(C)S(C)(=O)=O	15.8	14.2
CN1c2ccc(C#Cc3cccnc3)cc2[C@H]2[C@H](CCN2C(=O)C2CCCCC2)[C@@H]1CO	7.7	9.5
COc1ccc(NC(=O)Nc2cccc3c2O[C@@H](CN(C)S(=O)(=O)c2ccccc2)[C@H](C)CN([C@@H](C)CO)C3=O)cc1	-0.1	4.6
C[C@H]1CN([C@@H](C)CO)C(=O)CCCn2cc(nn2)CO[C@H]1CN(C)S(C)(=O)=O	4.6	10.9

Among those listed so far, 4 contain four or more nitrogen atoms:
SMILES	Vaccinia inh	Vaccinia inh Venus
Cc1noc(C)c1S(=O)(=O)N(C)C[C@H]1Oc2ccc(NS(=O)(=O)c3ccc(F)cc3)cc2CC(=O)N([C@@H](C)CO)C[C@H]1C	7.4	9.1
CC=Cc1ccc2n(c1=O)C[C@H]1[C@H](CO)[C@@H](C(=O)NCC)N(Cc3nccs3)[C@@H]21 (mixture of isomers)	-6.1	-2.3
COc1ccc(NC(=O)Nc2cccc3c2O[C@@H](CN(C)S(=O)(=O)c2ccccc2)[C@H](C)CN([C@@H](C)CO)C3=O)cc1	-0.1	4.6
C[C@H]1CN([C@@H](C)CO)C(=O)CCCn2cc(nn2)CO[C@H]1CN(C)S(C)(=O)=O	4.6	10.9

Later entries
SMILES	Vaccinia inh	Vaccinia inh Venus
Cc1ccc(-c2cnc3c(c2)C(=O)N([C@H](C)CO)C[C@@H](C)[C@@H](CN(C)C(=O)Cc2ccccc2)O3)cc1	-3.4&-16.9	-1.5&-18.9
CO[C@@H]1CN(C)C(=O)c2ccc(NC(=O)Nc3cccc(Cl)c3)cc2OC[C@@H](C)N(C(=O)Nc2c(C)noc2C)C[C@H]1C	-6.3	-4.2
Cc1ccc(S(=O)(=O)N[C@@H]2C=C[C@H](CC(=O)N3CCN(c4ccccc4)CC3)O[C@@H]2CO)cc1	-9.5	-10.1
C[C@@H]1CN([C@@H](C)CO)S(=O)(=O)c2ccc(Br)cc2O[C@H]1CN(C)S(=O)(=O)c1cccc(F)c1	-27.2	-17.3
CNC[C@@H]1Oc2ccc(NC(=O)Nc3ccc(F)cc3)cc2C(=O)N([C@H](C)CO)C[C@H]1C	9.6	2.1
CC(=O)Nc1ccc2c(c1)C(=O)N(C)[C@@H]1CC[C@H](CC(=O)NCc3ccccc3Cl)O[C@@H]1CO2	-4.1	0.2
Cc1ccccc1-c1cnc2c(c1)C(=O)N([C@@H](C)CO)C[C@@H](C)[C@H](CN(C)Cc1ccncc1)O2	-15.5	-6.6
O=C(C[C@@H]1C=C[C@H](NC(=O)Nc2ccc(C(F)(F)F)cc2)[C@@H](CO)O1)NCc1ccccn1	-0.1	-2.2
CCCNC(=O)Nc1ccc2c(c1)OC[C@@H](C)N(Cc1ccccn1)C[C@@H](C)[C@@H](OC)CN(C)C2=O	7.5	4.9
CC=Cc1ccc2n(c1=O)C[C@@H]1[C@@H](CO)[C@H](C(=O)NCC3CC3)[C@H]2N1S(=O)(=O)c1cn(C)cn1 (mixture of isomers)	1.8	11.3
COc1cccc(CNC(=O)C[C@@H]2C=C[C@@H](NC(C)=O)[C@H](CO)O2)c1	11.3	15.8
O=C(O)[C@@H]1[C@@H](CO)[C@@H]2Cn3c(ccc(C4=CCCCC4)c3=O)[C@@H]2N1Cc1ccccc1F	3.5	11.5
C[C@H]1CN([C@@H](C)CO)C(=O)c2cc(N(C)C)ccc2O[C@@H]1CN(C)C(=O)Nc1ccc(C(F)(F)F)cc1	6.4	7.5
COC(=O)C[C@@H]1CC[C@@H]2[C@@H](COc3ccc(NC(=O)c4ccccc4)cc3C(=O)N2C)O1	1.7	2.9
CCNC(=O)[C@H]1[C@H](CO)[C@H]2Cn3c(cccc3=O)[C@H]2N1Cc1cccc(F)c1	12.1	6.4
C/C=C/c1ccc2c(c1)O[C@@H](CN(C)Cc1cccnc1)[C@@H](C)CN([C@@H](C)CO)S2(=O)=O	-11.0	-14.5
COc1ccc(S(=O)(=O)N(C)C[C@H]2Oc3ccc(NC(=O)c4ccncc4)cc3C(=O)N([C@H](C)CO)C[C@@H]2C)cc1	-1.9	4.3
CCCN1C[C@H](C)[C@@H](OC)CN(C)C(=O)c2cc(NS(=O)(=O)CC)ccc2OC[C@H]1C	-3.9	-3.9
CC(C)NC(=O)N(C)C[C@H]1Oc2ccc(NC(=O)NC3CCCCC3)cc2C(=O)N([C@@H](C)CO)C[C@@H]1C	20.3	17.6
O=C(NC1CCCCC1)N[C@@H]1CC[C@H](CCNS(=O)(=O)c2ccc(F)cc2)O[C@H]1CO	-6.0	2.5
Cc1noc(C)c1NC(=O)Nc1ccc2c(c1)CC(=O)N([C@H](C)CO)C[C@@H](C)[C@H](CN(C)Cc1ccc(C(F)(F)F)cc1)O2	2.9	5.4
C[C@@H]1CN([C@H](C)CO)C(=O)c2cccc(NS(=O)(=O)c3ccc(Cl)cc3)c2O[C@H]1CN(C)CC1CCCCC1	-1.3	-1.9
Cc1cccc(S(=O)(=O)N2C[C@H](O)COC[C@H]3O[C@H](CC(=O)NCc4ccc5c(c4)OCO5)CC[C@@H]32)c1	-8.7	1.3
COc1cccc(S(=O)(=O)N2CCC3(CC2)CN(C(=O)Nc2ccc(F)cc2)[C@H](CO)c2[nH]c4cc(OC)ccc4c23)c1	?	/
CCC(=O)N1C[C@@H](O)COC[C@H]2O[C@@H](CC(=O)NC)CC[C@@H]21	21.2	9.7
COc1ccc(CN(C)C[C@H]2OCCCC[C@@H](C)Oc3ccc(NS(=O)(=O)c4cccs4)cc3C(=O)N([C@@H](C)CO)C[C@H]2C)cc1	?	/
CC(C)NC(=O)N(C)C[C@H]1Oc2ccc(NS(=O)(=O)c3cn(C)cn3)cc2CC(=O)N([C@@H](C)CO)C[C@H]1C	1.7	-3.3
COc1ccc(-c2cnc3c(c2)C(=O)N([C@@H](C)CO)C[C@H](C)[C@H](CN(C)C)O3)cc1	-7.0	-3.0
Cc1noc(C)c1NC(=O)N(C)C[C@@H]1OCCCC[C@@H](C)Oc2ccc(NS(=O)(=O)c3ccc(F)cc3)cc2C(=O)N([C@H](C)CO)C[C@@H]1C	19.9	5.5
CN(C)C(=O)c1cccc(-c2ccc([C@@H]3[C@@H](CO)N4C(=O)CNC[C@@H]34)cc2)c1	22.9	14.3
COc1ccc2c3c(n(C)c2c1)[C@H](CO)N(Cc1ccncc1)CC31CN(C(=O)C2CCCC2)C1	15.9	6.6
CCC(=O)N1C[C@@H](C)[C@H](OC)CN(C)C(=O)c2ccc(NC(=O)c3ccc(OC)cc3)cc2OC[C@H]1C	11.9	10.1
C[C@@H]1CN([C@H](C)CO)C(=O)c2cc(NC(=O)Nc3cccc4ccccc34)ccc2O[C@H]1CN(C)S(C)(=O)=O	31.9	23.7
C[C@@H]1CN([C@@H](C)CO)C(=O)c2cc(C3=CCCCC3)cnc2O[C@H]1CN(C)C(=O)c1cccc(F)c1	-18.1	-2.8
COc1ccc(NC(=O)N(C)C[C@H]2Oc3c(NC(=O)C4CCOCC4)cccc3C(=O)N([C@H](C)CO)C[C@H]2C)cc1	-7.1	-11.1
C[C@@H]1CN([C@@H](C)CO)S(=O)(=O)c2ccc(-c3cccc(F)c3)cc2O[C@@H]1CN(C)S(=O)(=O)c1ccc(F)cc1	?	/
CNC[C@@H]1Oc2ccc(NS(=O)(=O)c3ccc(OC)cc3)cc2C(=O)N([C@@H](C)CO)C[C@H]1C	1.8	0.9
C[C@@H]1CN([C@H](C)CO)C(=O)c2cc(NC(=O)C3CCCCC3)ccc2O[C@@H]1CN(C)S(=O)(=O)c1cn(C)cn1	5.1	-1.7
C[C@@H]1CN([C@H](C)CO)C(=O)c2cc(NC(=O)CCC(F)(F)F)ccc2O[C@@H](C)CCCCO[C@H]1CN(C)C(=O)Nc1ccccc1	1.5	3.9
CN(C)C(=O)c1ccc(-c2ccc3c(c2)[C@H]2[C@H](CCN2S(=O)(=O)c2cn(C)cn2)[C@@H](CO)N3)cc1	4.4	2.7
CO[C@H]1CC[C@H]2CCOc3c(C#N)cccc3C(=O)N(C)C[C@H](OC)[C@H](C)C(=O)N(C)C[C@@H]1O2	6.8	3.6
O=S(=O)(N[C@H]1CC[C@H](CCn2cc(-c3ccccc3F)nn2)O[C@@H]1CO)c1ccc(F)cc1	-28.0	-21.1
Cc1ccc(S(=O)(=O)Nc2ccc3c(c2)CC(=O)N([C@@H](C)CO)C[C@H](C)[C@H](CN(C)C(=O)NC(C)C)O3)cc1	0.8	9.0
C[C@@H]1CN([C@H](C)CO)C(=O)Cc2cc(NC(=O)c3ccncc3)ccc2O[C@@H]1CN(C)CC1CC1	18.1	15.7
C[C@H]1CN([C@@H](C)CO)C(=O)c2cc(Br)cnc2O[C@@H]1CN(C)C(=O)Nc1ccccc1	16.4	2.4
CC(=O)N(C)C[C@H]1Oc2ncc(-c3cccnc3)cc2C(=O)N([C@@H](C)CO)C[C@@H]1C	16.5	8.8
CN(C)CC(=O)N[C@H]1CC[C@H](CC(=O)O)O[C@@H]1CO	17.5	18.5
CC(=O)N(C)C[C@H]1Oc2ncc(C3=CCCC3)cc2C(=O)N([C@@H](C)CO)C[C@H]1C	11.4	9.3
CN(C)C(=O)c1cccc(-c2ccc([C@@H]3[C@@H](CO)N4C(=O)CN(C(=O)C5CCCCC5)C[C@H]34)cc2)c1	4.5	-0.5
CN(C)CC#Cc1ccc([C@@H]2[C@@H](CO)N3CCCCN(CC4CC4)C[C@H]23)cc1	5.1	-6.3

Continuation:
SMILES	Vaccinia inh	Vaccinia inh Venus
CO[C@H]1CC[C@@H]2CCN(C)C(=O)[C@H](C)N(C)C(=O)c3cc(C#N)ccc3OC[C@H]1O2	4.8	5.7
CN1c2ccc(Br)cc2[C@H]2[C@H](CCN2C(=O)C2CCOCC2)[C@H]1CO	15.0	-1.5
CN(C)CC(=O)Nc1ccc2c(c1)[C@@H]1C[C@H](CC(=O)NCc3ccccn3)O[C@@H](CO)[C@@H]1O2	7.5	3.0
CC(C)NC(=O)Nc1cccc2c1O[C@@H](CN(C)Cc1ccc3c(c1)OCO3)[C@H](C)CN([C@@H](C)CO)C2=O	-7.0	2.7
CC(C)C(=O)Nc1ccc2c(c1)C(=O)N(C)[C@H]1CC[C@@H](CC(=O)Nc3ccccc3)O[C@@H]1CO2	0.4	1.6
C[C@H](CO)N1C[C@H](C)[C@H](CN(C)S(=O)(=O)c2cn(C)cn2)Oc2cc(C#Cc3ccccc3)ccc2S1(=O)=O	-34.9	-28.3
Cc1ccccc1S(=O)(=O)NCC[C@H]1CC[C@@H](NC(=O)Nc2cccc(F)c2)[C@@H](CO)O1	-19.4	-14.7
O=C(N[C@@H]1CC[C@H](CCNS(=O)(=O)c2ccc(F)cc2)O[C@@H]1CO)C1CC1	14.4	12.0
Cc1noc(C)c1S(=O)(=O)N(C)C[C@H]1Oc2ccc(NS(C)(=O)=O)cc2CC(=O)N([C@H](C)CO)C[C@@H]1C	10.5	4.9
CCCC#Cc1ccc([C@@H]2[C@@H](CO)N3C(=O)CN(C(=O)Nc4cccc(F)c4)C[C@@H]23)cc1	-7.5	-1.8
CCCNC(=O)[C@H]1[C@H](CO)[C@H]2Cn3c(ccc(-c4cccnc4)c3=O)[C@@H]1N2C(=O)Nc1ccccc1	6.5	7.6
CCS(=O)(=O)N1CCCCN2[C@H](CO)[C@@H](c3ccc(C#Cc4ccccc4OC)cc3)[C@@H]2C1	5.7	3.6
C[C@@H]1CN([C@H](C)CO)C(=O)c2cc(-c3ccc(C(=O)N(C)C)cc3)cnc2O[C@@H]1CN(C)Cc1ccc(C(=O)O)cc1	27.3	6.8
COc1ccc(CN2C[C@@H](O)COC[C@@H]3O[C@H](CC(=O)NCc4ccncn4)CC[C@H]32)cc1	5.4	7.8
Cc1noc(C)c1S(=O)(=O)N(C)C[C@@H]1OCCCC[C@H](C)Oc2ccc(NC(=O)Nc3cccc4ccccc34)cc2C(=O)N([C@H](C)CO)C[C@@H]1C	-2.8	1.8
C[C@H](CO)N1C[C@H](C)[C@H](CN(C)Cc2ccc(Cl)c(Cl)c2)OCCCC[C@H](C)Oc2ccc(NC(=O)Nc3ccc(C(F)(F)F)cc3)cc2C1=O	-11.4	-8.5
COc1cccc(-c2ccc([C@@H]3[C@@H](CO)N4CCCCN(C(=O)NC(C)C)C[C@@H]34)cc2)c1	9.1	5.0
C[C@H](CO)N1C[C@H](C)[C@@H](CN(C)Cc2ccc(-c3ccccc3)cc2)Oc2ccc(NS(=O)(=O)c3cccs3)cc2CC1=O	?	/
CC(C)c1cn(CC[C@H]2CC[C@@H](NC(=O)c3cccc(F)c3)[C@@H](CO)O2)nn1	0.3	3.6
O=C(C[C@H]1CC[C@@H]2[C@H](COC[C@@H](O)CN2Cc2cccc(F)c2)O1)NCC1CCCCC1	-34.6	-15.0

Reformatted with two lines to a compound: part of the list above
Order of results – Vaccinia inh	Vaccinia inh Venus
C[C@@H]1CN([C@H](C)CO)C(=O)c2cccc(NS(=O)(=O)c3ccc(Cl)cc3)c2O[C@H]1CN(C)CC1CCCCC1
 : -1.3	-1.9
CO[C@H]1CC[C@@H]2CCN(C)C(=O)[C@H](C)N(C)C(=O)c3cc(C#N)ccc3OC[C@H]1O2
 : 4.8	5.7

A portion of the library (hit frequency here may not be typical).
